Beta2AR agonist = beta2AR agonists driving receptor internalization, primary screen, cell-based, FAP fluorogen, flow cytometry | Beta-2 adrenergic receptor (Homo sapiens), P07550 | Am2.2-beta2AR cells; reference of the scale not given here | response, % (no concentration beside the values) | 0.43% of 340,000 active | AID 504454, 2011;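 active = response above a set limit, near 3 SD of response in nonfluorescent compounds, cut at about 42% in these data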;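 also: stock transfer was 100 nL into about 11 µL; a reference agonist was the positive control; negative values mostly stem from fluorescent compounds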
Calb FLC = C. albicans growth inhibition with fluconazole, primary screen, CaCi-2 strain, Alamar Blue fluorescence | C. albicans CaCi-2 (fluconazole-resistant clinical isolate) + fluconazole, 48 h | growth inhibition, % (test concentration not listed) | 0.57% of 300,000 active;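 active = most replicates above 75%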;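 also: all wells also contain fluconazole at 8 µg/ml as a sub-toxic cotreatment; 0% = median of DMSO wells and 100% = median of geldanamycin control wells; wells of about 8 µL received 7.5 nL stock; the first replicate is given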
T cruzi repl = inhibitors of intracellular T. cruzi growth, primary screen, luminescence, NIH3T3 host cells; T. cruzi beta-gal in NIH3T3, 90 h; inhibition, % (test concentration not listed); 1.4% of 300,000 active; AID 1885, 2009;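 active = mean inhibition across valid replicates above about 55%, limit read from the data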;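 also: signal also drops with host cell toxicity which is not excluded here; 0% = plate median of DMSO wells and 100% = zero luminescence signal; higher percent means less beta-gal luminescence so fewer parasites; stock transfer was 50 nL into about 50 µL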
Beta cell apopt = inhibitors of cytokine-induced beta cell apoptosis, primary screen, luminescence; INS-1E cytokine-induced death, ATP luminescence, 48 h; percent of positive-control rescue, neutral wells zero; protection from apoptosis, % (test concentration not listed); 0.8% of 300,000 active; AID 435005, 2010;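 active = all replicates at 75% or more, or half of them and the mean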;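 also: 0% = cytokine-treated negative control wells and 100% = positive control rescue; higher means more ATP so stronger rescue from cytokine killing; wells of about 40 µL received 100 nL stock; the first replicate is given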
Bfl-1 A1 inh = caspase 3/7 activation in MEF A1-2A-BIM cells, primary screen, A1 inhibitor project, cell-based, luminescence, HTS; Caspase-Glo 3/7 luminescence, 3 h; percent of clofoctol response, vehicle zero; 0.066% of 330,000 active; caspase activation, % (concentration not given with the values);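 active = over half of replicate activation scores above 10%, or exactly half above 10 with the replicate mean above 10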;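 also: wells of about 30 µL received 50 nL stock; many hits fall short of the cut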
ALR inh = inhibitors of human ALR sulfhydryl oxidase, primary screen, biochemical, H2O2 detection, HRP-luminol luminescence, single point; FAD-linked sulfhydryl oxidase ALR (Homo sapiens), P55789; purified ALR, DTT oxidation; inhibition, % (no concentration beside the values); 3.8% of 290,000 active;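 active = mean and each replicate at 75% or more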;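 also: stock transfer was 7.5 nL into about 7.5 µL; 0% = neutral wells and 100% = wells with inactivated enzyme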
LANA-H2A inh = blockers of LANA interaction with H2A/H2B – biochemical, FP readout, HTS, primary screen; cell-free LANA-H2A/H2B peptide, fluorescence polarization; inhibition, % (no concentration beside the values); 0.6% of 320,000 active; AID 2629, 2010; in the data active = inhibition mostly above about 10%, no sharp cut-off; inactive = mostly below about 6.7%;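 also: stock transfer was 7.5 nL into about 10 µL; 0% = median of vehicle wells and 100% = median of positive control wells; one replicate is shown; the record names a cut of 25% in any replicate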
rRNA inh HTS = reduced GFP signal of wild-type E. coli, primary screen, bacterial rRNA inhibitor project, GFP/RFP fluorescence, OD600, single point | GFP signal change (wild-type ribosome), % (no concentration beside the values) | E. coli WT GFP vs humanized-ribosome RFP mutants, 24 h; stronger effect = lower value; DMSO median 0, no signal -100 | 1.6% of 350,000 active;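 active = significant combined selectivity score with lowered wild-type GFP, culture density cut under 30%, mutant RFP and density less affected; inactive = any of these conditions unmet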; also: one replicate is shown; some compounds called inactive have numbers as strong as hits
rRNA inh HTS OD600 = further read-out of rRNA inh HTS, marked with its call; OD600 change, %; measured here: OD600 growth;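 optical density of the mix in the first replicate; 0 = DMSO median and -100 = no signal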
rRNA inh HTS RFP = also measured in rRNA inh HTS; calls as there; RFP signal change, %; measured here: RFP humanized mutant strains;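 first replicate; 0 = DMSO median and -100 = no signal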
The depositor's hits bear a star; · = no result given. Only part of the results is shown; rates above refer to the full screens.

SMILES	Beta2AR agonist	Calb FLC	T cruzi repl	Beta cell apopt	Bfl-1 A1 inh	ALR inh	LANA-H2A inh	rRNA inh HTS	rRNA inh HTS OD600	rRNA inh HTS RFP
O=C(Nc1ccc(N2CCOCC2)cc1)NC1CCCCC1	0	11	-6	-25	-2.4	11	-5.2	·	·	·
Cc1cccc(C(=O)N[C@H](C(=O)Nc2cccc(S(=O)(=O)N3CCCC3)c2)C(C)C)c1	2	-7	2	-4	-0.2	0	4.5	1	0	3.3
Cc1ccc(Cl)cc1NC(=O)c1ccc(CSc2nnnn2C)cc1	-2	-7	-13	2	0.1	-25	0.4	·	·	·
O=C(O)C1C2C=CC3(CN(CC(O)COc4ccccc4)C(=O)C13)O2 (stereo not drawn)	1	24	-21	-2	0.1	1	3.6	·	·	·
O=c1[nH]ncc(N2CCN(Cc3ccccc3)CC2)c1Cl	2	7	-2	·	-1.2	3	0.0	5	0	-1.6
COc1cc(-c2nnc(Cn3cc(C(F)(F)F)ccc3=O)o2)cc(OC)c1OC	0	9	3	0	-0.3	-5	0.2	·	·	·
Cc1ccsc1-c1nc(CN(C)C(C2CC2)C2CC2)c(C)o1	0	-3	12	0	0.6	-2	2.2	-6	-15	1.7
COc1ccc(CN2C(=O)c3ccccc3C2C(=O)NC2CCC(C)CC2)c(OC)c1 (stereo not drawn)	-6	-3	9	4	1.3	-33	2.1	7	4	-2.2
CN(C(=O)c1cccnc1)c1nnc(-c2cccnc2)s1	-2	-6	-4	-6	0.4	-5	1.9	·	·	·
O=C(Nc1ccc2c(c1)CCC2)c1cc(S(=O)(=O)Nc2ccc(F)cc2)c(Cl)cc1Cl	-4	7	19	6	0.2	-3	2.3	-12	-2	-3.8
Cc1ccc(NC(=O)CSc2nc3c(cc2C#N)C(=O)CCC3)cc1S(=O)(=O)N(C)C	1	26	-11	-4	1.5	67	-1.3	8	10	-1.0
COc1cc(OC)cc(C(=O)NCCCCc2ccccc2)c1	3	9	22	·	1.8	-13	0.4	6	2	1.8
CCC(=O)N1c2ccc(S(=O)(=O)CCC(=O)Nc3nccs3)cc2CC1C (stereo not drawn)	-1	0	-20	-4	-0.3	-3	0.5	·	·	·
CS(=O)(=O)Cc1ccc(C(=O)NCC2(N3CCCCC3)CCCCC2)cc1	8	-4	21	-4	0.8	·	-1.2	4	2	2.2
COCCn1c(-c2ccccc2)csc1=Nc1cccnc1	-2	0	1	·	0.8	-2	1.8	-44	-69	-4.5
CC1CN(C(=O)COC(=O)c2ccc3ncsc3c2)CC(C)O1 (stereo not drawn)	3	·	·	-2	-0.2	-2	4.1	7	14	1.5
CCCCn1c(=N)n(CC(=O)c2ccco2)c2ccccc21	-3	-6	4	3	0.9	-1	3.3	-1	5	2.5
Cn1nnnc1CCOCCc1nnnn1C	2	-3	-4	-4	-0.1	-9	1.5	·	·	·
O=C(/C=C/NNC(=O)c1ccccc1)c1ccccc1	-11	-17	-25	-4	-1.9	17	-1.7	·	·	·
O=C(c1csc2c1CCCC2)N1CCN(c2cccc(C(F)(F)F)c2)CC1	-3	20	4	0	1.1	-24	-1.2	·	·	·
CC(OC(=O)CNC(=O)c1ccc(Cl)cc1)C(=O)NC1CCCCC1C (stereo not drawn)	-5	-5	-9	·	0.3	0	-0.1	7	2	1.5
N#CCCCSc1nnc(CSc2nc3ccccc3s2)n1-c1ccccc1	-6	3	13	1	0.0	-18	1.1	·	·	·
CCOC(=O)c1ccc(NC(=O)CSCC(=O)OCC(=O)c2ccccc2)cc1	0	-3	-2	-6	0.3	100*	-2.1	8	3	2.8
Cc1ccc(C)c2[nH]c(=O)c(CN(CC3CCCO3)S(=O)(=O)c3ccc4c(c3)OCCO4)cc12 (stereo not drawn)	-1	13	24	5	1.0	-15	6.0	·	·	·
COCCCNC(=O)C1C2C=CC3(CN(Cc4ccc(C)cc4)C(=O)C13)O2 (stereo not drawn)	3	11	-1	0	-0.9	0	0.7	10	0	-6.2
CC1(CCc2ccccc2)NC(=O)N(CC(=O)N2CCCCCC2)C1=O (stereo not drawn)	10	-10	-4	1	-0.7	2	-1.5	9	11	1.8
COc1cccc(CNCCNC(=O)c2ccco2)c1OC	8	-25	-1	-3	-0.1	·	-0.5	·	·	·
COc1ccc2[nH]c(=O)c(CN(C(C)=O)c3cccc(C)c3)cc2c1	5	2	-2	-1	0.6	-15	-0.9	·	·	·

An excerpt from above in order of their number in Beta2AR agonist, descending:
canonical_smiles	Beta2AR agonist	Bfl-1 A1 inh	ALR inh	LANA-H2A inh	rRNA inh HTS	rRNA inh HTS OD600	rRNA inh HTS RFP
CS(=O)(=O)Cc1ccc(C(=O)NCC2(N3CCCCC3)CCCCC2)cc1	8	0.8	·	-1.2	4	2	2.2
COc1ccc2[nH]c(=O)c(CN(C(C)=O)c3cccc(C)c3)cc2c1	5	0.6	-15	-0.9	·	·	·
Cc1ccsc1-c1nc(CN(C)C(C2CC2)C2CC2)c(C)o1	0	0.6	-2	2.2	-6	-15	1.7

7 compounds picked at random from those above:
SMILES	Beta2AR agonist	Calb FLC	T cruzi repl	Beta cell apopt	Bfl-1 A1 inh	ALR inh	LANA-H2A inh	rRNA inh HTS	rRNA inh HTS OD600	rRNA inh HTS RFP
COCCCNC(=O)C1C2C=CC3(CN(Cc4ccc(C)cc4)C(=O)C13)O2 (stereo not drawn)	3	11	-1	0	-0.9	0	0.7	10	0	-6.2
N#CCCCSc1nnc(CSc2nc3ccccc3s2)n1-c1ccccc1	-6	3	13	1	0.0	-18	1.1	·	·	·
Cn1nnnc1CCOCCc1nnnn1C	2	-3	-4	-4	-0.1	-9	1.5	·	·	·
CS(=O)(=O)Cc1ccc(C(=O)NCC2(N3CCCCC3)CCCCC2)cc1	8	-4	21	-4	0.8	·	-1.2	4	2	2.2
O=c1[nH]ncc(N2CCN(Cc3ccccc3)CC2)c1Cl	2	7	-2	·	-1.2	3	0.0	5	0	-1.6
CCC(=O)N1c2ccc(S(=O)(=O)CCC(=O)Nc3nccs3)cc2CC1C (stereo not drawn)	-1	0	-20	-4	-0.3	-3	0.5	·	·	·
COCCn1c(-c2ccccc2)csc1=Nc1cccnc1	-2	0	1	·	0.8	-2	1.8	-44	-69	-4.5

Source: PubChem
